Ba CapD inh – blocks the Bacillus anthracis CapD enzyme; purified CapD enzyme, fluorescence intensity read-out; active compounds read low; some hits fall short of the stated cut; z-score (no concentration beside the values); actives 0.23% (n = 140,000); AID 492967;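 active means z-score under -4 in either of two replicates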;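 further: stock transfer was 100 nL into about 40 µL; score is relative to mean and spread of the plate; one replicate is shown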
AID504770 – growth inhibitors of E. coli YBA685 in a screen for V. cholerae RctB (chromosome II replication) inhibitors; E. coli YBA685 rctB-dependent plasmid, OD600 growth, 3 h; active compounds read low; z-score (test concentration not listed); actives 0.27% (n = 130,000);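 active means z-score under -2 on both plates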;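 further: wells of about 30 µL received 100 nL stock; score is relative to mean and SD of the test wells; the first replicate is given; strong numbers were not always called active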
The depositor's hits bear a star; . = no result given. No enrichment for hits (roughly 0.41% active in at least one column).

SMILES	Ba CapD inh	AID504770
COc1ccccc1N1C(=O)CC(=O)NC1=S	-0.035	.
NC(=O)Cn1nnc2sc3c(c2c1=O)CCCC3	0.17	0.2
Cc1ccc(N(Cc2ncc(-c3ccccc3)o2)S(=O)(=O)c2ccc3c(c2)OCCO3)cc1	.	-0.65
COc1cc2c(cc1NC(=O)CN1CCN(S(=O)(=O)c3ccc(F)cc3)CC1)oc1ccccc12	1.6	-0.2
O=C(CSc1nnc2n1CCCCC2)N1N=C(c2ccco2)CC1c1ccco1 (stereo not drawn)	.	0.05
CCSc1nc(C(F)(F)F)c(C(=O)c2ccccc2)cc1C#N	1.9	-0.1
COC(=O)c1sc(C(C)(C)C)cc1N	7.3	.
Cc1ccc(S(=O)(=O)Nc2nnc(CC(C)(C)C)s2)cc1	.	-0.3
O=C1CN(C(=O)/C=C/c2ccccc2)C(c2ccccc2)c2cc(Br)ccc2N1 (stereo not drawn)	-0.76	-0.2
CCOC(=O)C1C(C)C2C(=O)C=CCC2N1C (stereo not drawn)	.	-0.6
CCOC(=O)c1c(/N=C/c2nc(-c3ccco3)oc2O)sc2c1CCC2	-0.78	-0.5
CCCCNC(=O)Nc1ccccc1Oc1ccccc1	0.8	0.7
CCOC(=O)N1CCC(NC(=O)CCc2c(C)nc3c(-c4ccc(F)cc4)c(C)nn3c2C)CC1	0.14	-1.4
c1csc(-c2nnc(COc3ccc4c(c3)OCO4)o2)c1	.	-0.7
Nc1cc(-c2cccs2)[nH]n1	0.78	.
Cc1cc(F)ccc1S(=O)(=O)Nc1ccc(C(=O)N2CCCCCC2)cc1	0.54	0.9
CC1CC(C)CN(c2ccc(NC(=O)c3ccc(Cl)cc3)cc2C(=O)O)C1 (stereo not drawn)	0.055	2.4
CCOC(=O)C1=C(C)NC2=C(C(=O)c3ccccc32)C1c1cc(Br)ccc1OCC(=O)O (stereo not drawn)	-0.55	.
COc1ccc(C2=NN(C(=O)CCC(=O)O)C(c3ccccc3OC)C2)cc1 (stereo not drawn)	7.2	.
NC(=O)N/N=C/c1cccs1	-0.29	0.5
CCc1ccc(C(=O)Nc2cccnc2Oc2ccc(Cl)cc2)cc1	-0.11	-0.65
O=C(CCn1c(=O)c2ccccc2n(Cc2ccccc2)c1=O)NCc1ccc2c(c1)OCO2	0.075	1
O=C(O)c1cscc1Sc1ccc(Cl)cc1	-0.42	-0.35
CSC(=NCc1ccco1)Nc1ccc(Cl)cc1	0.66	.
CCCS(=O)(=O)c1c(S(=O)(=O)CCC)c2ccc(C(C)=O)cn2c1C(=O)c1ccccc1	0.3	.
Fc1cc(Br)c(-n2cccc2)c(Br)c1Cl	-0.3	.
COc1ccc(CCNC(=O)CCCn2c(=O)[nH]c3ccccc3c2=O)cc1OC	-0.28	1
CCCS(=O)(=O)c1c(S(=O)(=O)CCC)c2c3ccccc3ccn2c1C(=O)N/N=C/c1cccc2ccccc12	-0.2	.
O=C1C=C(NCCNc2ncc(C(F)(F)F)cc2Cl)C(=O)c2ccccc21	-0.55	.
Cc1[nH]c2ccccc2c1C(=O)COc1ccccc1	0.24	-0.6
Cc1cccc(C(N)=S)c1	.	-0.2
O=C(/C=C/c1ccco1)NNc1c(F)c(F)cc(F)c1F	.	-0.55
O=C(CSc1nc2c(sc(=S)n2Cc2ccco2)c(=O)n1-c1ccccc1)N1CCCC1	-0.9	.
COc1cc(C#N)ccc1Oc1nc(CN2CCOCC2)nc2scc(-c3cccs3)c12	.	1
O=C(O)C1CC(=O)N(c2ccccc2)C1 (stereo not drawn)	-0.12	-0.55
COc1cc(C2C(C(=O)Nc3ccc(Br)cn3)=C(C)NC3=C2C(=O)CC(C)(C)C3)cc(OC)c1OC (stereo not drawn)	4.4	.
Cc1cccc(NC(=O)Cn2cc(CO)c3ccccc32)c1	.	-0.45
CN1CCN(C(=O)COc2ccc(Oc3ccccc3)cc2)CC1	-0.7	0.7
CC1=C(C(=O)Nc2ccc(Cl)cc2)C(c2ccco2)C(C#N)=C(SCC(N)=O)N1 (stereo not drawn)	2.3	.
Cc1ccccc1Cn1cc(S(=O)(=O)CC(=O)Nc2ccc3c(c2)OCCO3)c2ccccc21	-0.08	0.15

Sorted by molecular weight (low to high): part of the list above.
SMILES	Ba CapD inh	AID504770
Cc1[nH]c2ccccc2c1C(=O)COc1ccccc1	0.24	-0.6
Cc1cccc(NC(=O)Cn2cc(CO)c3ccccc32)c1	.	-0.45
Fc1cc(Br)c(-n2cccc2)c(Br)c1Cl	-0.3	.
CCCS(=O)(=O)c1c(S(=O)(=O)CCC)c2ccc(C(C)=O)cn2c1C(=O)c1ccccc1	0.3	.
CCCS(=O)(=O)c1c(S(=O)(=O)CCC)c2c3ccccc3ccn2c1C(=O)N/N=C/c1cccc2ccccc12	-0.2	.

Going on with the list:
SMILES	Ba CapD inh	AID504770
CCN(CC(=O)NC)S(=O)(=O)c1ccccc1	0.64	0.85
COc1cc2nc(CN(C)C3CCCCC3)[nH]c(=O)c2cc1OC	.	-0.3
COc1ccc(-c2ncc3ccccn23)cc1OC	6.6	-0.35
Nc1nnc(SCC(O)Cn2c3c(c4ccccc42)CCCC3)s1 (stereo not drawn)	.	-0.1
CC(C)CN1C(=O)c2ccc(C(=O)Nc3nccs3)cc2C1=O	-0.08	0.3
[O-]/[N+](=C\c1ccncc1)c1ccc(Cl)cc1	-1.1	2.4
OC1CCC(NCc2ccc(-c3nc4ccccc4s3)o2)CC1 (stereo not drawn)	.	-0.2
CC1Oc2ccccc2N(CCC(=O)O)C1=O (stereo not drawn)	.	0.75
CCc1ccc(CNCc2cccs2)cc1	.	-1.2
Cc1ccc(C(=O)ON(C)/C=C/C(=O)c2ccc(Br)cc2)cc1	-0.38	.
COc1ccccc1N1CCN(Cc2ccc(Cl)cc2Cl)CC1	0.46	-0.6
CN1C(=O)C(=Cc2cccn2-c2ccc(N(C)C)cc2)C(=O)N(C)C1=S	2.6	1.7
COc1ccc(NC(=O)CSc2nc(N)c(C#N)cc2C#N)c([N+](=O)[O-])c1	-0.01	.
Cc1oc(-c2ccc(Cl)cc2)nc1CN1CCC(C(=O)NCc2ccc3c(c2)OCO3)CC1	-0.17	-0.35
CNC(=O)COc1ccc(C(=O)c2ccc(F)cc2)cc1	.	-0.05
O=C(Nc1cccnc1)C1CC(c2ccc(Cl)cc2)=NO1 (stereo not drawn)	-0.24	-0.9
Nn1c(CCCc2nc3ccccc3c(=O)n2N)nc2ccccc2c1=O	0.77	1.1
O=C(NC1CC1)C1CC(=O)N(c2ccccc2)C1 (stereo not drawn)	0.28	-0.8
N#Cc1c(N2CCCCC2)nc(N)c2c(N)nc(SCC(=O)O)cc12	.	-0.25
COc1ccc(-c2csc3nc(-c4ccccc4OC)oc(=O)c23)cc1	1.2	.
Cc1noc(/C=C/NCc2cccnc2)c1S(=O)(=O)N(C)CC(=O)N1CCc2ccccc21	.	-0.55
O=C1CS(=O)(=O)C(c2ccccc2)C(=O)N1c1ccc(Br)cc1 (stereo not drawn)	-0.025	.
COC(=O)CNC(=O)Cc1c(F)cccc1Cl	0.01	-1.1
CC(C)(C)c1cc(C(=O)Oc2ccc(Cl)cc2)n(Cc2ccccc2)n1	9.5	-1.9
CC1(C)CCCC2=C1CC1C(=O)N(CCC[N+](C)(C)C)C(=O)C1C2 (stereo not drawn)	-0.52	-0.25
O=C(CSc1ccccn1)N1CCN(C(=O)CSc2ccccn2)CC1	0.48	.
COc1ccc2c(c1)CCC(C(C)=O)C2=O (stereo not drawn)	2.2	.
CS(=O)(=O)Cc1ccccc1	0.4	-0.55
CCOc1ccc(C(=O)NN)cc1	.	-1
Cc1ccc(C)n1C(CC(=O)O)C1CCCCC1 (stereo not drawn)	-0.8	-0.75
CCOC(=O)c1cnc(-c2ccccc2)nc1Oc1cccc(Cl)c1	-0.095	.
COc1ccc2cc(C(=O)Nc3ccccc3)c(=Nc3ccc(C#N)cc3)oc2c1	1.8	.
Clc1ncnc2sccc12	.	-1.1
Cc1nc2sccn2c(=O)c1S(=O)(=O)NCc1cccnc1	28	-0.6
CCOC(=O)N1CCC(NC(=O)c2cc3nc(-c4ccc(OC)c(OC)c4)cc(C(F)(F)F)n3n2)CC1	1.6	.
CN(C)C(=C(C#N)C#N)N1CCN(c2ccc(Cl)c(Cl)c2)CC1	-0.72	.
CCOC(=O)c1cnn(C)c1NS(=O)(=O)c1ccc(Cl)cc1	0.56	0.55
CCO/C=C1\C(=O)N(c2ccc(C)cc2C)C(=O)c2cc(OC)ccc21	0.06	-0.7
CCOc1cc(/C=C2\SC(N)=NC2=O)ccc1OC(=O)c1ccc(C)cc1	0.11	.
Cc1sc2ncnc(SCC(=O)c3ccccc3)c2c1C	-0.12	-0.15
COc1ccc(Cl)cc1NC(=O)NCC1CCN(C(=O)OC(C)(C)C)CC1	-0.68	0.3
O=C(Nc1cccc(NC(=S)NC(=O)c2cccc3c(Br)cccc23)c1)c1ccco1	-0.52	1.1
COc1ccc(-c2nc(-c3cc(OC)cc(OC)c3)[nH]c2-c2ccc(OC)cc2)cc1	-0.16	.
COc1ccccc1NC(=O)CSc1nc2n[nH]c(C)c2c(=N)n1-c1ccc(Br)cc1	-0.36	.
c1nnnn1CC1CCOCO1 (stereo not drawn)	-0.015	-0.4
O=C(NCc1cccs1)c1ccc2ccccc2n1	.	-0.1
COCCN(Cc1ccccc1)S(=O)(=O)c1cccc(C#N)c1	.	3.1
O=C(Nc1cc(C(F)(F)F)cc(C(F)(F)F)c1)C(=S)N1CCCCC1	0.12	0.9
C[N+]1(C)C2CC[C@H]1CC(OC(=O)C(O)c1ccccc1)C2 (stereo partly drawn)	-0.08	0
CC(OC(=O)Cn1c(=O)oc2ccccc21)C(=O)N(C)Cc1cccc(F)c1 (stereo not drawn)	.	0.4
CCOC(=O)C1=C(C)NC2=C(C(=O)C(C(=O)OCC)C(c3cccc(OC)c3)C2)C1c1ccc2c(c1)OCO2 (stereo not drawn)	3.7	.
COc1cc(C(=O)NC(C)C(=O)NN)cc(OC)c1OC (stereo not drawn)	0.3	-0.7
O=c1[nH]c2ccccc2n1C1CCN(S(=O)(=O)c2ccc(F)cc2F)CC1	0.49	.
CCOC(=O)c1nnn(-c2nonc2N)c1CN(C)C	-0.14	.
O=C(O)CSCc1ccc(Br)cc1	0.95	0.45
O=C(Nc1ccc(Cl)cc1)Nc1nc(-c2ccccc2)cs1	2.8	-0.15
NC(=O)c1sccc1Br	-1.2	.
CCc1ccc(CN2CCN(Cc3ccc(CC)cc3)CC2)cc1	-0.84	0.2
S=C(NCCc1ccccc1)N1CCc2ccccc21	1.2	1.8
O=C1c2nc3cc(-c4ccccc4)[nH]n3c(=O)c2CN1C1CCCCC1	42	-1.2
(more compounds)
SMILES	Ba CapD inh	AID504770
O=C(COC(=O)c1nn(CCO)c(=O)c2ccccc12)Nc1ccc(Cl)c(Cl)c1	.	1.6
Cc1nc(N2CCN(c3ccccn3)CC2)c2c(C)c(C(=O)NCc3ccco3)sc2n1	-0.91	.
Cc1nc(N2CCN(c3ccccn3)CC2)c2c(C)c(C(=O)N3CCCC3)sc2n1	-0.18	.
CC(C)(C)n1c(O)c(/C=C2\C=c3ccccc3=N2)c(=O)[nH]c1=O	-3.1	-0.45
CCOC(=O)c1sc(COc2cccc(Cl)c2)nc1C	0.4	0.35
CC1(CSc2ccccc2C(=O)NCC2COc3ccccc3O2)NC(=O)NC1=O (stereo not drawn)	.	-0.6
O=C(OCCc1csc2ccccc12)c1ccc(C(F)(F)F)cc1	0.4	.
COc1ccc(CCn2ccc(O)c(Cc3ccccc3)c2=O)cc1OC	0.29	.
O=C(/C=C/c1ccco1)ON1C(=O)c2ccccc2C1=O	.	-0.8
O=S1(=O)CCC(NC(=S)S)C1 (stereo not drawn)	0.17	-1.6
CC(=O)Nc1c(C(=O)O)oc2ccc(Cl)cc12	.	-0.45
COc1cc2c(cc1OC)CN(Cc1nc3ccsc3c(=O)[nH]1)CC2	.	-0.55
Cc1cccc(NCc2ccccc2O)c1	0.28	-0.2
CC(=O)c1ccc(S(=O)(=O)N2CCN(c3ncccn3)CC2)cc1	0.66	.
O=c1[nH]c(=S)[nH]c(C(F)(F)F)c1Cc1ccc(Cl)c(Cl)c1	1	0.1
CC(C)NC(=O)Oc1ccccc1	-0.98	-0.8
Clc1cccc(N2CCN(c3c4c(nc5ccc(Cl)cc35)CCC4)CC2)c1	0.38	-1
CCOC(=O)c1c(NC(=O)c2ccco2)sc2c1CCCC2=O	0.32	-0.25
CCN1CCN(C(=O)N[C@@H](C(=O)N[C@@H]2C(=O)N3[C@@H]2SC(C)(C)[C@@H]3C(=O)O)c2ccccc2)C(=O)C1=O	0.66	.
COc1ccc(N(C)C(=O)Cc2c(C(=O)O)[nH]c3ccccc23)c(OC)c1	0.08	0.05
O=C(CCN1C(=O)c2ccccc2C1=O)NC1CCCCCC1	0.2	0.2
Cc1[nH]c(=O)[nH]c(=O)c1S(=O)(=O)N1c2ccc(F)cc2CCC1C (stereo not drawn)	-0.36	1.9

Compound profiles, as listed above. Order of values: Ba CapD inh | AID504770
Cc1nc(N2CCN(c3ccccn3)CC2)c2c(C)c(C(=O)N3CCCC3)sc2n1 is entered as -0.18 | .
CCN1CCN(C(=O)N[C@@H](C(=O)N[C@@H]2C(=O)N3[C@@H]2SC(C)(C)[C@@H]3C(=O)O)c2ccccc2)C(=O)C1=O is entered as 0.66 | .
CC1(CSc2ccccc2C(=O)NCC2COc3ccccc3O2)NC(=O)NC1=O (stereo not drawn) is entered as . | -0.6
CCOC(=O)c1sc(COc2cccc(Cl)c2)nc1C is entered as 0.4 | 0.35
CC(=O)c1ccc(S(=O)(=O)N2CCN(c3ncccn3)CC2)cc1 is entered as 0.66 | .

Screens (PubChem)
